# CDC25B-CDK2 inh: human CDC25B-CDK2/CyclinA binding inhibition; z-score (no concentration beside the values); 0.72% of 94,000 active; HTRF CDC25B-CDK2/CyclinA binding, anti-His/anti-Flag; hits give high values; AID 1259370; P30305+P24941;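 further: score is relative to mean and SD of negative controls; strong numbers were not always called active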
# TAR Tat displ: HIV-1 TAR-Tat binding disruption. 0.6% of 100,000 active. z-score (test concentration not listed). HIV-1 TAR RNA, Tat peptide displacement FRET; hits give high values;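 further: score is relative to mean and SD of negative controls; some compounds called inactive have numbers as strong as hits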
# An asterisk follows results filed as active; . = no result given.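 How the source made its calls: active means z-score from 3 up in half or more of its runs; inactive means the rest.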 Outcome played no part in choosing rows. About 0.9% of those tested had a hit in this group.
# Order of values: CDC25B-CDK2 inh, TAR Tat displ
O=C(NNc1cc(C(F)(F)F)nc2ccccc12)Nc1ccccc1
  0.86, .
CCOC(=O)Cc1c(C)nc2nc(NCc3cc(F)cc(F)c3)[nH]n2c1=O
  -1.13, 1.2
CCOC(=O)c1c(C)oc2nc(C)nc(NCc3ccccn3)c12
  ., -0.9
Cn1cc(NC(=O)NCc2cccnc2)c2ccccc2c1=O
  ., -2.43
CC1CS(=O)(=O)CCO1 (configuration not stated)
  -1.1, .
COc1cc(CO)cc(-c2cc(CO)cc(OC)c2OC)c1OC
  1.01, 0.91
CCc1ccc(OCC2=NN(C(C)=O)C(c3ccc(OC(C)=O)cc3)O2)cc1 (configuration not stated)
  ., 2.61
COC(=O)c1cnn2c1NCN(CCc1ccc(OC)c(OC)c1)C2
  -0.88, 1.19
c1nc(N2CCC3(CC2)OCCO3)c2[nH]cnc2n1
  -0.53, .
Cc1cc(C)n(CC(C)O)c(=O)c1C#N (configuration not stated)
  15.5*, 0.95
CCOc1cccc2c1Oc1nc(-c3cc(OC)ccc3OC)[nH]c(=O)c1C2
  -0.39, 0.57
CCOCCCN(Cc1ccco1)C(=O)c1cc2c(s1)-c1ccccc1S(=O)(=O)C2
  -0.48, 1.86
CSc1nc(N)nc(CSc2ccc(Cl)cc2)n1
  1.11, .
C=CCNC(=O)c1ccccc1NC(=O)CN1C(=O)c2cccc3cccc1c23
  -0.58, 0.71
Cc1ccccc1-c1noc2ncnc(NC3CCCCC3)c12
  ., -1.03
CC(C)CNC(=O)NCc1cccn1Cc1ccc(Cl)cc1
  -2.31, 1.11
O=c1[nH]c(-c2ccccc2)nnc1/C=C(\O)c1cccs1
  -0.95, .
O=C(CC1(O)C(=O)Nc2ccc(F)cc21)c1ccccc1Br (configuration not stated)
  ., 1.04
OC(c1ccncc1)c1c[nH]c2ccccc12 (configuration not stated)
  -2.28, .
O=C(NCc1ccncc1)C1(c2cccs2)CCOCC1
  ., 0.96
COc1cc(C)c(S(=O)(=O)Nc2cccc(-c3ccc(S(C)(=O)=O)nn3)c2)cc1C
  ., -0.2
CC(C)(C)NC(=O)C1CC(=O)OC12CCOC(C)(C)C2 (configuration not stated)
  -1.24, .
Cc1cc2c3c([nH]c2cc1S(=O)(=O)Nc1ccc(Cl)cc1)CCCC3=O
  ., 2.68
Cc1ccc(OCc2ccc(-c3nc(C#N)c(NC4CC4)o3)o2)cc1
  -2.08, -0.31
CCCc1cc(=O)[nH]c(SCCOc2ccc(Cl)cc2)n1
  -1.29, -0.21
O=C(c1cc(O)c(O)c(O)c1)c1ccc(O)c(O)c1O
  ., 32.5*
Cc1cc(C(=O)NNc2cc(C(F)(F)F)ccc2Cl)n(C(C)(C)C)n1
  -0.26, .
Cc1cc(=O)oc2cc(OCCC(C)C)ccc12
  -0.61, .
CCn1cc(C(=O)NCCCN2CCOCC2)c(=O)c2cc(S(=O)(=O)N3CCOCC3)ccc21
  0.46, 0.17
COc1ccc2cc(-c3csc(NC(C)=O)n3)c(=O)oc2c1
  0, .
Cc1csc2nc(CSc3ncn[nH]3)cc(=O)n12
  ., 0.31
O=C(Cn1c(=O)oc2ccccc21)N1CCN(CCOc2ccc(Cl)cc2)CC1
  ., 0.54
Cc1cc2oc3c(c(=O)c2cc1C)C(c1cccc(O)c1)N(c1nccs1)C3=O (configuration not stated)
  -1.1, -1.02
CCOc1ccc(-n2nnnc2CNS(=O)(=O)c2cc(OC)ccc2OC)cc1
  ., 0.89
CCn1c(SCC(=O)Nc2cc(C)nn2-c2ccccc2)nnc1-c1cccs1
  -1.83, .
C=CCc1cccc(C2OCCn3c(-c4ccc(OC)cc4)c4c(=O)n(C)c(=O)n(C)c4c32)c1O (configuration not stated)
  -1.79, -1.02
COc1ccc(OC)c(CCN[C@H]2CS(=O)(=O)C[C@@H]2S(=O)(=O)c2cccs2)c1
  -0.76, -2.12
OCc1nc2ccccc2n1CCCOc1ccccc1
  -0.3, 1.43
CCOC(=O)c1cc(S(=O)(=O)NCCc2sccc2C)cn1C
  0.53, 0.79
CCCCNc1nc2c(-c3ccc(F)cc3)nnn2c2ccccc12
  3.23, 0.6
Cc1cccc(NC(=O)Nc2cn(CC(C)C)c(=O)c3ccccc23)n1
  ., 1.43
CCOC(=O)c1[nH]c(C)c(C(=O)NCC(C)C)c1C
  -1.57, .
CC(C)CCCC(C)C1CCC2C3CC[C@H]4CCCC[C@]4(C)C3CC[C@]12C (some centres not stated)
  ., -0.55
O=c1c2ccccc2n2c(=O)[nH]nc2n1Cc1ccccc1
  -0.8, 0.31
Cc1cc(C)c(C#N)c(OC(=O)c2c(F)cccc2F)n1
  -1.95, .

# Random excerpt: 5 records from the list, in no set order.
# Order of values: CDC25B-CDK2 inh, TAR Tat displ
OCc1nc2ccccc2n1CCCOc1ccccc1
  -0.3, 1.43
O=c1c2ccccc2n2c(=O)[nH]nc2n1Cc1ccccc1
  -0.8, 0.31
CC(C)CCCC(C)C1CCC2C3CC[C@H]4CCCC[C@]4(C)C3CC[C@]12C (some centres not stated)
  ., -0.55
C=CCc1cccc(C2OCCn3c(-c4ccc(OC)cc4)c4c(=O)n(C)c(=O)n(C)c4c32)c1O (configuration not stated)
  -1.79, -1.02
CCn1c(SCC(=O)Nc2cc(C)nn2-c2ccccc2)nnc1-c1cccs1
  -1.83, .

# The list goes on:
# Order of values: CDC25B-CDK2 inh, TAR Tat displ
O=c1[nH]ccn(Cc2ccc(Cl)cc2)c1=O
  1.67, 0.33
N=C1SCCN1CC(=O)c1ccc(Cl)c(Cl)c1
  -3.18, .
CCOC(=O)c1sc(-c2ccccc2)nc1CSc1nnc(C(F)(F)F)n1C
  -1.12, .
COc1ccc(N2CC(O)=C(c3nc4ccccc4[nH]3)C2=N)cc1Cl
  -0.49, 1.26
C=CCNc1ncnc2c1cnn2-c1ccc(C)c(C)c1
  ., 0.52
Cc1c2c(=O)n(-c3nc4ccccc4s3)nc-2cc(O)n1CCCN1CCOCC1
  -1.29, 1.09
CCOC(=O)N1CCN(C2CC(=O)N(c3cccc(Cl)c3)C2=O)CC1 (configuration not stated)
  0.7, -0.38
CC(C)CCNC(=O)C1CC2CCCN2C12C(=O)Nc1ccccc12 (configuration not stated)
  -3.12, 2.04
Cc1ccc(-c2nn3c(C)nnc3s2)cc1NC(=O)c1ccc(Br)o1
  -0.23, .
Cc1nc2nc(COc3ccccc3)nn2c(C)c1Cl
  -1.44, 0.45
Cc1ccc(C)c(N2C(=O)N(Cc3ccc(Br)cc3F)C3CS(=O)(=O)CC32)c1 (configuration not stated)
  -1.18, 0.4
CC1=C(c2ccc(F)cc2)S(=O)(=O)N=C1Nc1ccc(Cl)cc1
  ., -0.13
O=C(NC1CCCc2ccccc21)C1=Cc2cc(Cl)ccc2OC1 (configuration not stated)
  -1.43, .
CC(=O)N1CC(C)Sc2ccc(S(=O)(=O)N3CCN(C4CCCC4)CC3)cc21 (configuration not stated)
  ., 1.84
O=c1c(NCc2ccc(F)cc2)nccn1-c1ccc2c(c1)OCCO2
  ., -1.04
O=C(Nc1nnc(CCS(=O)(=O)c2ccc(Br)cc2)s1)c1ccc(Cl)cc1
  -2.28, -1.49
CCOc1ccc(-c2ccc(NS(=O)(=O)c3ccc(OC)c(OC)c3)cc2)nn1
  ., 1.7
O=C(CCc1nc(-c2ccc(S(=O)(=O)N3CCCC3)cc2)no1)NC1CCCC1
  ., -0.21
Cc1cc2c3c([nH]c2cc1S(=O)(=O)NCC(C)c1ccccc1)CC(C)(C)CC3=O (configuration not stated)
  ., 0.5
Cc1ccccc1Nc1c(-c2ccsc2)nc2cccc(C)n12
  -2.32, .
CCOC(=O)c1[nH]c(C)c(C(=O)NC2CCCCCCC2)c1C
  -1.26, .
Cc1nn(S(=O)(=O)c2ccc(Cl)cc2)c(C)c1S(=O)(=O)N1CCCC1
  ., 0.85
O=c1c2ccccc2ncn1Cc1noc(-c2ccco2)n1
  ., -0.09
Fc1cccc(-c2nnc3ccc(SCc4ccccn4)nn23)c1
  -2.54, .
CN(Cc1ccco1)C(=O)c1ccc2c(c1)NC(=O)C1CCCCN21 (configuration not stated)
  ., 1.05
O=C(O)CCN1C(=O)SC(CC(=O)Nc2nccs2)C1=O (configuration not stated)
  -1, .
CC1=C(Cl)C(=O)OC1(C)CN(C)C (configuration not stated)
  -2.19, .
O=C(Nc1nc(C23CC4CC(CC(C4)C2)C3)cs1)c1c(O)c2cccc3c2n(c1=O)CCC3
  -1.11, .
O=C(c1ccc(Br)cc1)N(Cc1ccco1)C1CCS(=O)(=O)C1 (configuration not stated)
  -2.12, 0.53
COc1ccc(C2NC(Cc3ccccc3)(C(=O)O)C3C(=O)N(c4ccccc4OC)C(=O)C23)cc1 (configuration not stated)
  -2.11, -1.12
CCCN(C1=NC2CS(=O)(=O)CC2S1)c1cc(C)cc(C)c1 (configuration not stated)
  -0.69, 0.94
O=C(Nc1ccc2c(c1)OCCO2)N1CCC2(CC1)Nc1ccccc1-n1cccc12
  ., 0.21
COc1ccc(-c2cc(C(F)(F)F)n3nc(C(=O)OC(C)C)cc3n2)cc1
  ., 0.23
O=C1CC(c2ccccc2)c2c(n[nH]c2-c2ccc(Cl)cc2)N1 (configuration not stated)
  -0.98, 0.7
CC1(C)Cc2c(sc(/N=C/N3CCCCC3)c2C#N)C(C)(C)N1
  -2.66, .
CCCNC(=O)NCc1c(C)nn(-c2ccccc2)c1-n1cccc1
  ., 0.71
CC1CCCN(c2nn3c(=O)c(C(=O)NCCc4ccco4)cnc3s2)C1 (configuration not stated)
  ., 0.6
O=C(c1cc(=O)c2cc(Br)ccc2o1)N(Cc1ccco1)c1ccccn1
  -1.53, -0.73
CCN(CC)CCNC(=O)Cn1cnc2sc(C)c(S(=O)(=O)N3CCC(C)CC3)c2c1=O
  1.11, 0.39
CN(C)CCN(C(=O)C1=COCCO1)c1nc2ccc(Br)cc2s1
  ., 1.68
CNC(=O)c1c(NC(=O)c2cc(=O)c3cc(C)c(C)cc3o2)sc2c1CCCC2
  0.24, -0.67
Cc1ccc(-n2nc(C)c3c(C)c(CCC(=O)N4CCCC4)c(C)nc32)cc1
  -1.29, .
COc1ccc(NS(=O)(=O)c2ccc(-c3cc(C)no3)s2)c(OC)c1
  ., 2.08
COc1ccc(OC)c(-c2noc(CSc3nnc(C)n3-c3ccccc3)n2)c1
  -1.68, 0.47
Cc1ccc(-c2cnnc(-n3nc(C)c4c3NC(=O)CC4c3cccc(F)c3F)n2)cc1 (configuration not stated)
  -0.29, 1.82
O=C1CCc2cc(NS(=O)(=O)c3ccc(Cl)cc3)ccc2N1
  ., 0.71
COc1ccc(-n2nc3ccc(N)cc3n2)cc1Cl
  1.96, 16.1*
Cc1ccc2nc(SCc3c(C(=O)O)nnn3-c3nonc3N)[nH]c2c1
  0.9, .
O=C(NCc1ccc2c(c1)OCO2)C1CCCN(c2ncnc3c2nc2n3CCCCC2)C1 (configuration not stated)
  ., 0.36
OC[C@@H](O)[C@H](O)C(/C=N/Nc1ccccc1)=N\Nc1ccccc1
  -1.61, .
O=S(=O)(Nc1cccc2c1CCCC2)c1ccc(-c2cnc(C3CC3)o2)cc1
  ., 0.88
Cc1cc(C2CCCN2C(=O)c2ccn(C)n2)on1 (configuration not stated)
  ., 1.41
O=C1OC(Nc2ccc([N+](=O)[O-])cn2)c2ccccc21 (configuration not stated)
  -0.13, .
Cc1cccc(-c2nc(SCc3cc(=O)n4ccsc4n3)n[nH]2)c1
  ., -0.36
COc1ccc(C(=O)OCc2cc(=O)n3nc(C4CC4)sc3n2)cc1OC
  ., -0.25
Nc1c(C(=O)Nc2ccccc2F)sc2nc3c(cc12)CCCCCC3
  -0.4, .
Cc1cc(C)c(NC(=O)c2cnc3sccn3c2=O)c(C)c1
  -0.88, .
CCOC(=O)c1c(C)[nH]c(C)c1S(=O)(=O)N1CCCC(C(=O)N2CCCCC2)C1 (configuration not stated)
  ., 0.69
N#CC1C(=O)NC(N2CCCCC2)=NC12CCCCC2 (configuration not stated)
  -0.54, -0.51
CCCN(Cc1ccc(Cl)cc1)Cc1cc(=O)c2cc(C)ccc2[nH]1
  ., -1.01

# Next records follow.
# Order of values: CDC25B-CDK2 inh, TAR Tat displ
O=c1c(Cl)c(Nc2cccc(Cl)c2)cnn1-c1nc2ccccc2s1
  -9.41, -1.14
O=C(CSc1nc(-c2ccco2)nc2cc(=O)[nH]n12)NCCCc1ccccc1
  ., 2.77
O=c1c(NCc2ccc(F)cc2)c(-c2ccc3c(c2)CCCC3)c1=O
  ., 1.95
CN(NC(=O)c1ccncc1)c1ccc(C(F)(F)F)cc1[N+](=O)[O-]
  0.26, .
O=S1(=O)C[C@H](NCc2ccc(F)cc2)[C@@H](S(=O)(=O)c2ccc(Cl)cc2)C1
  -1.14, 1.23
Cc1ccc2cc(-c3noc(-c4ccc(F)cc4)n3)c(=O)[nH]c2c1
  -0.75, 0.33
Cc1nnc2ccc(N3CCC(N(C)C4CCCC4)CC3)nn12
  -1.2, 2.63
COC(=O)c1c(-c2ccc(Cl)cc2)noc1Nc1ccc2c(c1)OCCO2
  -0.12, 0.88
CC1=C(c2cccc(Cl)c2)S(=O)(=O)NC1=NCc1ccccc1F
  -7.2, 0.66
CCc1ccc(-c2cc(C)no2)cc1S(=O)(=O)Nc1ccc2c(c1)OCCO2
  ., 0.89
CC1=C(C(=O)Nc2c(C)cc(C)cc2C)C2(CCN(C(C)C)CC2)OC1=O
  ., 0.12
O=C(Cc1ccc(NC2=NC3CS(=O)(=O)CC3S2)cc1)NCCc1ccc(Cl)cc1 (configuration not stated)
  -1.57, 0.03
O=C(c1cccs1)N1CCN(Cc2c(F)cccc2Cl)CC1
  -0.81, .
COc1ccc(-c2nc3c(C#N)c[nH]n3c2NC2CCCC2)c(OC)c1
  -0.01, 0.6
Cc1cc(OC(=O)c2snnc2C)ccc1Cl
  -0.26, 1.63
